CtBP-E1A blk: inhibitors of CtBP/E1A interaction; AlphaScreen GST-E1A/His-CtBP binding, 1536-well; hits give low values; control for the full effect not named in the record; activity change, % (test concentration not listed); actives 0.49% (n = 340,000); in the data active means activity change below about -65%; inconclusive means about -30% to -65%; inactive means above about -30%; also: % is scaled to controls: 0 for no effect and ±100 for the full control effect; compound concentration not given in the record
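Steps: dispense buffer (Tris pH 8.0, NaCl 300 mM, TCEP 1 mM, BSA, Tween 20); add 5X protein mix (GST-E1A, His-CtBP, 125 nM each); pin 23 nL compound; 2 h at 37 °C, dark; add 5X beads (50 ug/mL); 1 h; read.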
Six1-Eya2 inh: Six1/Eya2 interaction inhibition. activity change, % (no concentration beside the values). AlphaScreen GST-Six1/His-Eya2 binding, biochemical; hits give low values; control for the full effect not named in the record. Q15475+O00167. actives 0.56% (n = 360,000); in the data active = activity change below about -65%; inconclusive = about -30% to -65%; inactive = above about -30%; also: % is scaled to controls: 0 for no effect and ±100 for the full control effect; compound concentration not given in the record
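AlphaScreen with GST-Six1 and His-Eya2 (5X mix: 250 nM and 500 nM), glutathione donor and nickel acceptor beads; buffer 50 mM Tris pH 8.0, 300 mM NaCl, 1 mM TCEP; 1 h at 37 C in the dark.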
TRPML1 inh: blocks the human TRPML1 channel; actives 0.02% (n = 390,000); AID 624415; activity change, negative = inhibition, % (concentration not given with the values); Q9GZU1; TRPML1-inducible cells, Ca2+ dye fluorescence, FDSS; hits give low values; inhibition of EC80 agonist-evoked calcium signal; in the data active means activity change below about -50%; inconclusive means about -30% to -50%; inactive means above about -30%;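 also: stimulus is agonist 54-4 at its EC80 concentration; % is scaled to controls: 0 for no effect and ±100 for the full control effect; compound concentration not given in the record; the text of the record puts the active cut at -80%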
Target sequence (Q9GZU1 whole entry, looked up): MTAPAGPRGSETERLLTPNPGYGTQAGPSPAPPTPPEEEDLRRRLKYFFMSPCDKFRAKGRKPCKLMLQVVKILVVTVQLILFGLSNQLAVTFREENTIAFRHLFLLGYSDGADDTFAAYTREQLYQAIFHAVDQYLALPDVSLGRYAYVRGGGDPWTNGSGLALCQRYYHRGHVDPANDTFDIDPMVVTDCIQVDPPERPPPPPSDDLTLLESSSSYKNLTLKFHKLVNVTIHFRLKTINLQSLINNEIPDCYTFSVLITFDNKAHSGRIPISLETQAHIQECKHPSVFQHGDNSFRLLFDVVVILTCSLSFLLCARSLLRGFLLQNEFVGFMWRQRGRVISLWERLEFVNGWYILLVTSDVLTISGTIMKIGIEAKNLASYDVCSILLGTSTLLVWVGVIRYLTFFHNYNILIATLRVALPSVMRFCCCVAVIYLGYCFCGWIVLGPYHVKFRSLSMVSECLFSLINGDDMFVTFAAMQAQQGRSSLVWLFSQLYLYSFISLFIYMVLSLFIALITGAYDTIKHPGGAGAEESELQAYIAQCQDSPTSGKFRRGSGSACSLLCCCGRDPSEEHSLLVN
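Calcium fluorescence in TRPML1-DL cells induced overnight with Tet: a 110 s read after compound pin addition, then a 110 s antagonist read after challenge with 54-4 at 4 uM final (EC80).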
PINK1 modulator: changes PINK1 expression. actives 0.2% (n = 410,000). PINK1 immunofluorescence, high-content cytometry, 24 h. Potency, µM (series often up to 76.6 µM), for inactives: at the highest dose activation (PINK1 increase), actives largely listed as activators; active = well fitted activation curve with a large enough effect; inconclusive = small, poorly fitted or top-dose-only effect; inactive = flat fitted curve, though single readings scatter; cell line not stated here;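 also: potency is read from the fitted curve at half-maximal effect; % of control where 0% means no effect; nearly all actives have a fitted effect of over 65% in size; a mitochondrial uncoupler was the plate control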
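Readout is PINK1 immunofluorescence, quantified alongside mitochondrial, cell and nuclear markers by laser-scanning microplate cytometry. Cells from a stable line were exposed to compound titrations (5 concentrations) for 24 hours, with CCCP controls.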
TRPML1 ag: agonists of human TRPML1 channel. actives 0.12% (n = 410,000). activation, % (test concentration not listed). TRPML1-expressing cells, Ca2+ dye fluorescence, FDSS; host cell line not named in the record; reference of the full effect not given here. Q9GZU1. AID 624414; in the data active = activation above about 50%; inconclusive = about 30% to 50%; inactive = below about 30%; also: 0% is about no effect; the text of the record puts the active cut at 80%
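TRPML1-DL cells, Tet-induced overnight (~16 h, 37 degrees C), loaded 45-90 min at room temperature with Ca8 no-wash calcium dye plus quencher. FDSS fluorescence: 10 s baseline, compound pin-transfer, 110 s agonist read, then EC80 54-4 (4uM final) and 110 s antagonist read.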
D2 agonist: human D2 receptor agonism in beta-arrestin assay | AID 624465 | DiscoveRx PathHunter D2 beta-arrestin, luminescence, 90 min; 100% = 57 uM dopamine signal | actives 0.084% (n = 360,000) | activation, % (test concentration not listed) | P14416; in the data active = activation above about 40%; inconclusive = about 15% to 40%; inactive = below about 15%; also: compound concentration not given in the record; the text of the record calls up to 30% inactive
Target sequence (P14416 whole entry, looked up): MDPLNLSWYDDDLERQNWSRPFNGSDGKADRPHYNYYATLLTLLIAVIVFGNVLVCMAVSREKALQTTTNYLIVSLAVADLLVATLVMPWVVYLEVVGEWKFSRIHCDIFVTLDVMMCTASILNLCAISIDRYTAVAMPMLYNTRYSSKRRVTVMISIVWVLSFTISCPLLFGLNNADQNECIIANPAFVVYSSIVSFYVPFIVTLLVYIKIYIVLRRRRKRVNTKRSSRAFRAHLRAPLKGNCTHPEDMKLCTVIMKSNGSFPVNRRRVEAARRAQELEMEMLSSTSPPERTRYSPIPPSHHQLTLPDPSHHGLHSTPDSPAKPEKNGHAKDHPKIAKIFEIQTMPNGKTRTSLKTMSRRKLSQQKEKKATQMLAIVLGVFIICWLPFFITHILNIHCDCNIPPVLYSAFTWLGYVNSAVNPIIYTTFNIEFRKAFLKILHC
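Agonist mode: compounds alone added to overnight-plated D2 PathHunter cells for 90 min at 37 C, with 57 uM final dopamine (EC100) defining full response. Beta-arrestin recruitment detected by chemiluminescent reagent, read after 1 h at ambient temperature.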
* = called active by the depositor; & = joins results of further samples; [ ] = remark or other dose.

`CCCCCNC(=O)c1ccc2c(=O)n(CC3CCCO3)c(=O)[nH]c2c1` (configuration not stated) gave CtBP-E1A blk 2, Six1-Eya2 inh 6, TRPML1 inh -9, PINK1 modulator 0.6%, TRPML1 ag -0.6 and D2 agonist -1.9.
`CCn1ccnc1C(O)c1ccccc1OC` (configuration not stated) gave CtBP-E1A blk -2, Six1-Eya2 inh 2, TRPML1 inh 43, PINK1 modulator 0.6%, TRPML1 ag -0.8&4.7 and D2 agonist -0.4.
For COCC(C)NC(=O)c1cc2cccc([N+](=O)[O-])c2[nH]1 (configuration not stated) the results were CtBP-E1A blk 3, Six1-Eya2 inh 2, TRPML1 inh 10, PINK1 modulator -2.8%, TRPML1 ag -0.4 and D2 agonist -2.6.
Screening CCC12CC3CC(C1)CC(C(=O)O)(C3)C2 returned CtBP-E1A blk 6, Six1-Eya2 inh 6, TRPML1 inh 15, PINK1 modulator -4.2%[38.3 µM], TRPML1 ag -0.1 and D2 agonist -0.9.
Screening NNc1nc2c(-c3ccc(Cl)cc3)nnn2c2ccccc12 returned CtBP-E1A blk -7, Six1-Eya2 inh 3, TRPML1 inh -7, PINK1 modulator 2.7%, TRPML1 ag 0.2 and D2 agonist inconclusive.
Screening Cc1ccccc1NC(=S)Nc1ccccc1 returned CtBP-E1A blk 4, Six1-Eya2 inh 4, TRPML1 inh 5, PINK1 modulator -0.9%, TRPML1 ag -0.2 and D2 agonist 5.5.
Screening C[C@H](NC(=O)N1CCn2c1nc1ccccc12)C(=O)NCc1ccc2c(c1)OCO2 returned CtBP-E1A blk -2, Six1-Eya2 inh 0, TRPML1 inh -10, PINK1 modulator -0.2%, TRPML1 ag -1.2 and D2 agonist 0.5.
Screening CC1(CN2CCCC2)CCC(NC(=O)C(c2ccccc2)c2ccccc2)C(C)(C)O1 (configuration not stated) returned CtBP-E1A blk 1, Six1-Eya2 inh -7, TRPML1 inh -3, PINK1 modulator 2.6%, TRPML1 ag -0.6 and D2 agonist -5.8.
`COc1ccccc1-c1cc2nc(C)c(CCC(=O)O)c(C)n2n1` gave TRPML1 inh -5, PINK1 modulator 0.5% and TRPML1 ag -0.5.
O=C1CC(C(=O)N(c2ccccc2)C(C(=O)NC2CCCC2)c2ccncc2)CS1 (configuration not stated) was read as CtBP-E1A blk -16, Six1-Eya2 inh 17, TRPML1 inh -13, PINK1 modulator 1.4%, TRPML1 ag 0.3 and D2 agonist 2.7.
For CCOC(=O)C1CCN(C2CCN(C(=O)c3oc4c(F)cccc4c3C)CC2)CC1 the results were CtBP-E1A blk 2, Six1-Eya2 inh 1, TRPML1 inh -29, PINK1 modulator 6.3%, TRPML1 ag -0.3 and D2 agonist -1.0.
Screening Oc1ccc(-c2[nH]ncc2-c2nc3ccccc3s2)c(O)c1 returned CtBP-E1A blk 4, Six1-Eya2 inh -6, TRPML1 inh 2, PINK1 modulator 0.1%, TRPML1 ag 0.2 and D2 agonist 1.0.
For COCCn1c(C)cc(C(=O)CSc2nc(C)nc3sc4c(c23)CCC4)c1C the results were CtBP-E1A blk 10, Six1-Eya2 inh 1, TRPML1 inh -2, PINK1 modulator inconclusive, TRPML1 ag 0.5 and D2 agonist -0.3.
Screening COc1ccc(C)cc1NC(=O)CN(C)C1CCCCC1 returned CtBP-E1A blk 7, Six1-Eya2 inh 1, TRPML1 inh -1, PINK1 modulator 0.0%, TRPML1 ag -0.3 and D2 agonist -3.3.
COc1cc(-c2nnc(SCC(=O)NC3CCCC3)n2C)cc(OC)c1O was read as CtBP-E1A blk 5, Six1-Eya2 inh 8, TRPML1 inh 1, PINK1 modulator 0.1%, TRPML1 ag 1.5 and D2 agonist 8.6.
Screening O=C(OCC(=O)N1CCc2ccccc2C1)c1cccnc1Cl returned CtBP-E1A blk 9, Six1-Eya2 inh 4, TRPML1 inh 8, PINK1 modulator 2.9%, TRPML1 ag -0.9 and D2 agonist -1.4.
Screening O=C(O)C1CN(c2nc(Cl)ccc2[N+](=O)[O-])C1 returned CtBP-E1A blk -5, Six1-Eya2 inh -9, TRPML1 inh 5, PINK1 modulator 0.1%, TRPML1 ag 0.1 and D2 agonist -0.4.
O=C(CN1C(=O)COc2ccccc21)N(Cc1ccccc1)Cc1ccccn1 was read as CtBP-E1A blk 6, Six1-Eya2 inh 3, TRPML1 inh -14, PINK1 modulator -1.6%[38.3 µM], TRPML1 ag 2.9 and D2 agonist -2.0.
Cc1c(S(=O)(=O)NC2CCCCCC2)c(=O)n(C)c(=O)n1C was read as CtBP-E1A blk 13, Six1-Eya2 inh 2, TRPML1 inh 5, PINK1 modulator -0.8%, TRPML1 ag -0.1 and D2 agonist 0.0.
Screening O=C(CN1C(=O)C(=O)N(Cc2ccccc2)C1=O)Nc1cc(Cl)cc(Cl)c1 returned CtBP-E1A blk -6, Six1-Eya2 inh -6, TRPML1 inh -12, PINK1 modulator 1.7%, TRPML1 ag 0.6 and D2 agonist 4.5.
Screening COc1ccccc1NC(=O)N1CCc2[nH]c3ccc(F)cc3c2C1 returned CtBP-E1A blk -17, Six1-Eya2 inh -20, TRPML1 inh 2, PINK1 modulator 10%, TRPML1 ag 2.1 and D2 agonist -1.3.
O=C(CSc1ncccn1)NCc1ccccc1Cl was read as CtBP-E1A blk -14, Six1-Eya2 inh -1, TRPML1 inh 0, PINK1 modulator -0.6%[38.3 µM], TRPML1 ag 0.2 and D2 agonist -1.7.
Screening CC(C)C(NC(=O)c1c(F)cccc1F)C(=O)N1CCN(c2ccccc2F)CC1 (configuration not stated) returned CtBP-E1A blk -20, Six1-Eya2 inh 6, TRPML1 inh 16, PINK1 modulator 1.0%, TRPML1 ag 0.8 and D2 agonist -0.4.
For CC1CCCCN1C(=O)c1cc(-c2ccc(Br)cc2)on1 (configuration not stated) the results were TRPML1 inh 15, PINK1 modulator 3.3% and TRPML1 ag -1.1.
For CC(NS(=O)(=O)c1cccc(Cl)c1)C(=O)Nc1ccc(-c2nc3ccccc3s2)cc1 (configuration not stated) the results were CtBP-E1A blk -2, Six1-Eya2 inh -4, TRPML1 inh 4, PINK1 modulator 15%, TRPML1 ag 2.3 and D2 agonist 7.5.
`CCCCN(C)CCCNC(=O)Cn1ncc2c3ccccc3n(Cc3cc(C)ccc3C)c2c1=O` gave TRPML1 inh 14, PINK1 modulator 7.9% and TRPML1 ag 0.4.
Screening Cc1cc(-c2nnc(CCC(=O)NCc3cc(F)cc(C(F)(F)F)c3)o2)no1 returned CtBP-E1A blk -14, Six1-Eya2 inh 2, TRPML1 inh -3, PINK1 modulator 0.7%, TRPML1 ag -0.2 and D2 agonist -1.7.
`Cc1[nH]ccc(=O)c1Oc1ncc(C(F)(F)F)cc1Cl` gave CtBP-E1A blk 7, Six1-Eya2 inh 1, TRPML1 inh 3, PINK1 modulator 0.3%, TRPML1 ag -0.2 and D2 agonist -2.7.
CC12COC3(C(=O)Nc4ccccc4F)CC1CCC32C (configuration not stated) was read as CtBP-E1A blk -5, Six1-Eya2 inh 9, TRPML1 inh 9, PINK1 modulator -2.3%, TRPML1 ag 2.4 and D2 agonist 0.7.
Screening CCn1cc(/C=N/NC(=O)c2ccc3c(c2)OCO3)c(C)n1 returned CtBP-E1A blk 0, Six1-Eya2 inh -1, TRPML1 inh 5, PINK1 modulator 1.8%, TRPML1 ag -0.1 and D2 agonist -4.3.
`O=C(c1ccc(COc2ccc(Cl)cc2Cl)o1)N1CCCC1` gave CtBP-E1A blk -11, Six1-Eya2 inh -3, TRPML1 inh -3, PINK1 modulator 5.2%, TRPML1 ag 1.4 and D2 agonist -0.5.
`COc1cccc(Oc2ccc(S(=O)(=O)N3CCOCC3)cc2[N+](=O)[O-])c1` gave CtBP-E1A blk -13, Six1-Eya2 inh -15, TRPML1 inh 3, PINK1 modulator -2.4%, TRPML1 ag -0.3 and D2 agonist 2.1.
`C=C(C)C(=O)NNc1ccccc1` gave CtBP-E1A blk 6, Six1-Eya2 inh -1, TRPML1 inh 5, PINK1 modulator -0.1%, TRPML1 ag -0.5 and D2 agonist -5.1.
Screening COc1ccc(NC(=O)CC23CC4CC(C2)CC(n2nnc(C)n2)(C4)C3)cc1 returned CtBP-E1A blk 2, Six1-Eya2 inh 18, TRPML1 inh -9, PINK1 modulator 3.8%, TRPML1 ag -0.7 and D2 agonist -3.4.
For CC1CCc2c(sc3nnn(CC(=O)Nc4ccccc4Cl)c(=O)c23)C1 (configuration not stated) the results were TRPML1 inh 15, PINK1 modulator -0.9% and TRPML1 ag -0.5.
Screening O=C(COC(=O)c1cccc(C(=O)OCC(=O)c2ccc(Br)cc2)n1)c1ccc(Br)cc1 returned CtBP-E1A blk -1, Six1-Eya2 inh 0, TRPML1 inh -5, PINK1 modulator 0.7%, TRPML1 ag 0.5 and D2 agonist -1.8.
Screening COc1ccc(C(=O)NCc2nnc(SCC(=O)N3CCOCC3)o2)cc1 returned Six1-Eya2 inh -2, TRPML1 inh 2, PINK1 modulator -0.5%, TRPML1 ag 1.1 and D2 agonist -3.6.
O=C(NCCN1CCOCC1)C(=O)NCc1ccco1 was read as CtBP-E1A blk -2, Six1-Eya2 inh 3, TRPML1 inh 5, PINK1 modulator 0.7%, TRPML1 ag 1.8 and D2 agonist -3.4.
For CC(=O)c1cccc(OCc2cc(C(=O)N(C)Cc3ccc(C)o3)no2)c1 the results were CtBP-E1A blk -10, Six1-Eya2 inh -1, TRPML1 inh 23, PINK1 modulator 1.4%, TRPML1 ag 1.9 and D2 agonist -0.2.
`CCOC(=O)c1nnc(-c2cccs2)nc1Oc1ccccc1C(=O)OC` gave CtBP-E1A blk 4, Six1-Eya2 inh 7, TRPML1 inh -1, PINK1 modulator 0.4%, TRPML1 ag 1.0 and D2 agonist -1.5.
Screening Nc1cccc(Nc2ncnc3ccccc23)c1 returned Six1-Eya2 inh 0, PINK1 modulator 0.5% and D2 agonist 4.8.

4 entries already listed, arranged by molar mass, lowest first.
O=C(NCCN1CCOCC1)C(=O)NCc1ccco1 was read as CtBP-E1A blk -2, Six1-Eya2 inh 3, TRPML1 inh 5, PINK1 modulator 0.7%, TRPML1 ag 1.8 and D2 agonist -3.4.
For CC(=O)c1cccc(OCc2cc(C(=O)N(C)Cc3ccc(C)o3)no2)c1 the results were CtBP-E1A blk -10, Six1-Eya2 inh -1, TRPML1 inh 23, PINK1 modulator 1.4%, TRPML1 ag 1.9 and D2 agonist -0.2.
Screening COc1ccc(NC(=O)CC23CC4CC(C2)CC(n2nnc(C)n2)(C4)C3)cc1 returned CtBP-E1A blk 2, Six1-Eya2 inh 18, TRPML1 inh -9, PINK1 modulator 3.8%, TRPML1 ag -0.7 and D2 agonist -3.4.
For CC1CCc2c(sc3nnn(CC(=O)Nc4ccccc4Cl)c(=O)c23)C1 (configuration not stated) the results were TRPML1 inh 15, PINK1 modulator -0.9% and TRPML1 ag -0.5.

Screening data: PubChem, National Center for Advancing Translational Sciences (NCATS)
